PrP UTR inh: suppresses PrP 5' UTR mRNA reporter expression | cell-based PrP 5' UTR mRNA reporter, plate reader | inhibition, % (no concentration beside the values) | 340,000 compounds, 0.35% hits | AID 488862;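 active = every replicate at 50% or more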;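 note: 0 = median of the neutral control wells; tested in H4 reporter cells; numbers are from one replicate; inactives centre near -14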
BJeLR lethal: BJeLR cell viability loss; BJeLR (HRASV12) viability, CellTiter-Glo ATP luminescence, 48 h; reference of the scale not given here; 300,000 compounds, 0.17% hits; AID 1554; inhibition, % (no concentration beside the values);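 active = replicate mean above 50%; inconclusive = above 50% but judged a plate artefact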;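 note: 50 nL library stock added to about 25 µL; numbers are from one replicate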
Mtb hypoxia inh: reduces hypoxia-regulated biosensor signal in M. tuberculosis; M. tuberculosis hypoxia-regulated fluorescent reporter, fluorescence; 300,000 compounds, 0.1% hits; AID 1159583; fluorescence inhibition, % (no concentration beside the values);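 active = 35 to 45% if threefold the growth effect, above 45% if 1.5-fold the growth effect; inactive = the rest, general growth blockers included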;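 note: wells of about 50 µL received 100 nL stock; 0% = vehicle wells and 100% = reference inhibitor wells; whole bacteria with a GFP reporter of the hypoxia response; strong numbers were not always called active; many hits fall short of the cut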
Autofluor counter: compound fluorescence in toxin protease inhibitor counterscreen. compound autofluorescence counterscreen, microsphere flow cytometry; active compounds read high. fluorescence intensity (concentration not given with the values). 360,000 compounds, 3.1% hits. AID 624483;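 active = at least 3 SD above the mean of all compounds, about 16000 in these data; inconclusive = too few beads counted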;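 note: 100 nL of 1 mM stock went into each well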
RN4220 kill: S. aureus RN4220 growth inhibition; OD600, 16 h; inhibition, % (no concentration beside the values); 330,000 compounds, 0.33% hits; AID 1259311;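 active = z-score of -3 or lower and OD600 up to 0.18 on both plates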;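 note: plate controls were untreated cells for no effect and reference antibiotic for full effect; stock transfer was 100 nL into about 80 µL; one replicate is shown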
ugtP null kill: kills S. aureus RN4220 lacking UgtP | growth inhibition, % (test concentration not listed) | S. aureus RN4220 ugtP deletion, OD600 growth, 16 h; some inactives read as strong as hits | 330,000 compounds, 0.54% hits;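 active = z-score under -3 and OD600 up to 0.15 on both plates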;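 note: plate controls were untreated wells for no effect and antibiotic for full effect; wells of about 80 µL received 100 nL stock; the first replicate is given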
Mtb hypoxia inh growth: recorded beside Mtb hypoxia inh, whose call it bears; growth inhibition, %; measured here: M. tuberculosis growth (absorbance);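 0% = vehicle and 100% = reference antibiotic; read after six days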
* = called active by the depositor; u = inconclusive; x = no result given.

no.	Molecule	PrP UTR inh	BJeLR lethal	Mtb hypoxia inh	Mtb hypoxia inh growth
1	CCOC(=O)N1CCC(NC(=O)C2CCN(C(=O)N3CC(C)Oc4ccccc43)CC2)CC1 (stereo not drawn)	-6	-12	2	-1
2	O=C(O)c1ccccc1N=NC(=NNc1cc(S(=O)(=O)O)ccc1O)c1ccccc1	x	x	9	0
3	O=C(Cc1c(F)cccc1Cl)Nc1nccs1	-24	-2	-1	-4
4	CC(=NCc1ccco1)c1c(O)n(-c2ccc(Cl)cc2)c(=O)[nH]c1=O	-18	-12	-1	8
5	N#CC1=C(N)Oc2cc(N)ccc2C1c1cccc(F)c1 (stereo not drawn)	-20	33	-4	-8
6	Cc1cc(C(c2ccc(C)o2)c2ccc(C)o2)c(O)c([N+](=O)[O-])c1	-13	-3	-8	2
7	COc1ccc(NC(=S)NCc2ccccn2)cc1OC	-4	-2	20	14
8	CC(=O)Nc1ccc(C=NNc2nncc3ccccc23)cc1	x	x	9	-3
9	O=C(O)CC(Sc1n[nH]c(=S)s1)C(=O)O (stereo not drawn)	-4	-13	2	11
10	CN(CC(=O)Nc1c(Cl)cccc1Cl)C(=O)C1CSC2(C)CCC(=O)N12 (stereo not drawn)	-6	-2	5	4

no.	Autofluor counter	RN4220 kill	ugtP null kill
1	16437*	3.9	5
2	x	6.8	12
3	3144	-1.8	1
4	5695	2.6	4
5	4338	3.6	-7
6	3826	-13	67
7	3113	-2.0	6
8	x	-0.5	13
9	4210	2.9	-2
10	6356	7.2	8

Quoted from the listing:
Under Mtb hypoxia inh, cpd 6 is entered as -8
Under BJeLR lethal, cpd 3 is entered as -2
Under RN4220 kill, cpd 2 is entered as 6.8

(list continues)
no.	Molecule	PrP UTR inh	BJeLR lethal	Mtb hypoxia inh	Mtb hypoxia inh growth
11	CC(=O)N1C(C(=O)O)CSC1c1ccc(C)cc1 (stereo not drawn)	-43	-15	x	x
12	COc1ccccc1/C=C(/NC(=O)c1ccccc1)C(=O)NCCN1CCOCC1	-4	-8	-7	-7
13	C#CC[N+](CC)(CC)CC#Cc1cccc(Cl)c1	-10	-6	8	5
14	CCc1sc(C(=O)Nc2ccc(NC(C)=O)cc2)cc1C	-20	8	0	13
15	O=C(CCCCCNc1nc(=S)[nH]c2ccccc12)NCCc1ccccc1	-16	11	-4	-5
16	CC(=Nc1cc(C(=O)c2ccccc2)ccc1N)C1=C(O)CC(C)(C)CC1=O	-24	-2	0	-15
17	Cc1c(C(=O)N2CCN(C)CC2)oc2ccc(S(=O)(=O)N3CCOCC3)cc12	-1	x	-6	0
18	O=C(NNC1=Nc2cc([N+](=O)[O-])ccc2OC1)c1ccccc1Cl	3	1	7	-4
19	COc1cccc(/C=N/NC(=O)CC2C(=O)NN=C2C)c1O (stereo not drawn)	-11	3	x	x
20	CC[C@]12c3[nH]c4ccccc4c3CCN1C(=O)C(CC(=O)NCCC1=CCCCC1)C[C@@H]2C(=O)N1CCN(C(=O)C2CC2)CC1 (stereo partly drawn)	-14	x	10	8

no.	Autofluor counter	RN4220 kill	ugtP null kill
11	5590	2.3	0
12	4257	4.6	8
13	3271	4.9	8
14	2486	4.8	3
15	2073	3.0	3
16	4788	2.6	0
17	9122	-0.6	-5
18	4433	-0.5	1
19	20430*	x	x
20	3391	-4.0	4

Next part (four carried over from the part before).
no.	Molecule	PrP UTR inh	BJeLR lethal	Mtb hypoxia inh	Mtb hypoxia inh growth
17	Cc1c(C(=O)N2CCN(C)CC2)oc2ccc(S(=O)(=O)N3CCOCC3)cc12	-1	x	-6	0
18	O=C(NNC1=Nc2cc([N+](=O)[O-])ccc2OC1)c1ccccc1Cl	3	1	7	-4
19	COc1cccc(/C=N/NC(=O)CC2C(=O)NN=C2C)c1O (stereo not drawn)	-11	3	x	x
20	CC[C@]12c3[nH]c4ccccc4c3CCN1C(=O)C(CC(=O)NCCC1=CCCCC1)C[C@@H]2C(=O)N1CCN(C(=O)C2CC2)CC1 (stereo partly drawn)	-14	x	10	8
21	CC(C)(C)OC(=O)NCCCC[C@H](NC(=O)c1nc[nH]c1C(=O)N1CCN(C(=O)OC(C)(C)C)CC1)C(=O)OC(C)(C)C	-16	4	x	x
22	Cc1c(NC(=S)N/N=C/c2ccc(O)cc2)c(=O)n(-c2ccccc2)n1C	-26	-13	x	x
23	O=C(c1nc2ccc(Cl)cn2c1CN1CCC(CO)CC1)N1CCc2ccccc2C1	0	1	12	15
24	Cc1ccc(/C=N/NC(=O)Cc2ccc(Cl)cc2)c(O)c1	-6	1	x	x
25	CC(=O)CCc1oc2ccc(C)cc2c1-c1ccc(C)o1	3	3	0	7
26	CCOc1ccc(OCC)c(NC(=O)C2CCCN2S(=O)(=O)c2cccc3cccnc23)c1 (stereo not drawn)	-3	0	x	x
27	CCN(CC)c1ccc(/C=N/NC(=O)c2ccc(Br)o2)cc1	-118	0	x	x
28	C=CCn1c(SCc2ccc(C(=O)Nc3nccs3)cc2)nnc1-c1ccc(C)c(Cl)c1	-10	0	2	6
29	CCOc1cc(C=NNC(N)=O)cc(Br)c1OCc1ccccc1F	x	x	14	8
30	COCCN(C(=O)c1csnn1)C(C(=O)NC1CCCCC1)c1ccc(C)cc1 (stereo not drawn)	-31	3	6	2

no.	Autofluor counter	RN4220 kill	ugtP null kill
17	9122	-0.6	-5
18	4433	-0.5	1
19	20430*	x	x
20	3391	-4.0	4
21	3718	x	x
22	10815	x	x
23	5454	4.2	-1
24	5195	x	x
25	6290	29	23
26	5469	-2.7	5
27	2608	x	x
28	2641	5.0	-9
29	x	3.5	-11
30	3662	3.4	16

(cont.)
no.	Molecule	PrP UTR inh	BJeLR lethal	Mtb hypoxia inh	Mtb hypoxia inh growth
31	CCOc1ccccc1-n1nnnc1SCC(=O)Nc1cc(C)on1	-14	6	-4	-1
32	CC(NC(=O)CCNC(=O)c1ccc(C(C)(C)C)cc1)c1ccccc1 (stereo not drawn)	-22	x	5	19
33	CCO[C@H]1OC(C(=O)Nc2ccccc2)=C[C@@H](C2CC2)[C@@H]1CCCO	-28	-5	x	x
34	CC1CCc2c(sc3ncnc(NCc4cccnc4)c23)C1 (stereo not drawn)	-27	4	0	-4
35	C/C(=N\NC(=O)NC1CCCCC1)c1ccc(OC(F)F)cc1OC(F)F	-12	-15	x	x
36	CCCCCC[n+]1c(-c2ccc(Cl)cc2Cl)csc1Nc1ccccc1	-1	0	13	4
37	Cc1cc2nsnc2c(S(=O)(=O)NCC(=O)O)c1C	8	6	-7	5
38	CCCc1cc(=O)[nH]c(SCC(=O)NC(=O)c2ccccc2)n1	-8	-13	10	5
39	COc1cccc(-c2nnc3sc(-c4ccco4)nn23)c1	-54	-7	4	6
40	O=C(c1cc2ccccc2s1)N1CCOCC1	-6	-14	13	17

no.	Autofluor counter	RN4220 kill	ugtP null kill
31	10769	2.3	-1
32	3726	3.2	5
33	3834	x	x
34	4317	1.5	-6
35	4032	x	x
36	2348	-9.5	17
37	6707	-1.5	-5
38	15878	4.6	6
39	9927	8.7	-11
40	6353	3.8	15

(further entries)
no.	Molecule	PrP UTR inh	BJeLR lethal	Mtb hypoxia inh	Mtb hypoxia inh growth
41	O=C(Nc1ccc(Cl)cc1C(=O)N1CCCCC1)c1ccco1	-5	0	9	-1
42	CCOC(=O)c1ccc(NC(=O)c2c(N)n(C)c(=O)n(C)c2=O)cc1	-6	7	20	18
43	O=C(C1CCCN(c2ncnc3c2nc2n3CCCCC2)C1)N1CCCCC1 (stereo not drawn)	-13	3	6	0
44	COc1cccc(CC(NC(C)=O)C(=O)NC2CCN(c3nnnn3-c3ccccc3)CC2)c1 (stereo not drawn)	-17	0	14	8
45	COc1ccc2ccc(OCC(=O)NCC3CCCO3)cc2c1 (stereo not drawn)	-30	x	5	-6
46	COc1cccc(N2CCN(CC(=O)Nc3nnc(-c4ccccc4)s3)CC2)c1	-2	8	x	x
47	CCOc1ccccc1NC(=O)COC(=O)/C=C/c1cccs1	-15	x	2	4
48	COc1ccc(N(CC(O)Cn2nnc3ccccc32)S(=O)(=O)c2ccc(C)cc2)cc1 (stereo not drawn)	-23	-3	-1	0
49	COCCN1C(=O)C(=O)/C(=C(/O)c2ccc(C)cc2)C1c1ccccn1 (stereo not drawn)	-4	8	13	5
50	N#C/C(C(=O)N1CCOCC1)=C1/SC(Cc2ccccc2Cl)C(=O)N1c1ccccc1 (stereo not drawn)	-11	-3	6	0

no.	Autofluor counter	RN4220 kill	ugtP null kill
41	3696	1.6	-3
42	2874	6.8	4
43	4894	-1.2	8
44	4289	4.0	3
45	4217	3.2	3
46	2286	-9.8	0
47	3709	4.5	3
48	7089	4.4	17
49	4725	7.3	-6
50	2006	6.4	14

(further entries)
no.	Molecule	PrP UTR inh	BJeLR lethal	Mtb hypoxia inh	Mtb hypoxia inh growth
51	Cc1[nH]c2ccc(F)cc2c1CCN(Cc1cccnc1)C(=S)Nc1ccccc1	-30	-2	8	11
52	CC(C)(C)OC(=O)CNC(=O)c1[nH]cnc1C(=O)N[C@@H](Cc1ccccc1)C(=O)OCc1ccccc1	6	8	x	x
53	C=CCN(C(=O)CSc1nnnn1C)c1nc(-c2ccccc2)cs1	-45	x	4	7
54	O=C(NC1CCCC1)C1CC(=O)N(c2ccc(F)cc2)C1 (stereo not drawn)	-20	4	-1	-8
55	O=C(O)c1cccc(NN=Cc2cc(Br)cc(Br)c2O)c1	x	x	-5	-3
56	Cc1cc(=O)oc2cc(OCC(=O)OCC(=O)Nc3c(C)n(C)n(-c4ccccc4)c3=O)ccc12	-22	-1	18	4
57	CC(NC(=O)c1cn(C)c2ccc(S(=O)(=O)N3CCCC3)cc2c1=O)c1ccc2c(c1)OCCO2 (stereo not drawn)	-7	-8	17	8
58	COc1cc(NC(=O)c2ccc(COCC(F)(F)F)o2)cc(OC)c1OC	-6	5	10	6
59	O=C(CCc1nnc(C2(c3ccc(Cl)cc3)CCC2)o1)NC1CC1	31	10	15	0
60	CCN(CC(=O)Nc1ccc(NC(C)=O)cc1)C(=O)C(c1ccccc1)c1ccccc1	-29	5	6	6

no.	Autofluor counter	RN4220 kill	ugtP null kill
51	3748	6.9	2
52	3868	x	x
53	5356	5.0	9
54	5283	0.1	10
55	x	2.5	-1
56	4971	4.3	7
57	u	0.9	3
58	11262	1.8	6
59	4377	2.1	3
60	2557	1.6	2

Remaining list, next part:
no.	Molecule	PrP UTR inh	BJeLR lethal	Mtb hypoxia inh	Mtb hypoxia inh growth
61	CCOc1ccc(N(CC)C(=O)c2nn(-c3ccc(OC)cc3)c(=O)c3c2c2ccccc2n3C)cc1	-7	-5	8	-2
62	Cc1ccc(C=Nn2c(-c3ccco3)n[nH]c2=S)cc1	x	x	9	5
63	CCO[C@@H]1OC(C(=O)NCc2ccccc2)=C[C@H](C2CC2)[C@H]1CCCO	-2	-3	x	x
64	CN=C1SC(CC(=O)Nc2ccc(N3CCOCC3)cc2)C(=O)N1C (stereo not drawn)	-57	6	6	-1
65	O=C(CCC(=O)c1cccs1)Nc1ccc(F)c(F)c1F	-9	-14	x	x
66	COC(=O)c1sccc1S(=O)(=O)NC(C)c1cnn(-c2ccc(OC)cc2)c1C (stereo not drawn)	-7	6	-1	-5
67	O=C(/C=C/c1ccccc1)Nc1cccc(C(=O)O)c1	80*	5	4	1
68	CCOC(=O)C1(Cc2cccc(OC)c2)CCN(CC=C(C)C)CC1	-16	3	14	8
69	CC(C)(C)C1=C(C#N)C(c2ccc3c(c2)OCO3)C(C#N)=C(N)O1 (stereo not drawn)	-19	8	x	x
70	CCn1c2ccccc2c2nnc(SCc3ccc(C(=O)OC)o3)nc21	-12	-1	4	7

no.	Autofluor counter	RN4220 kill	ugtP null kill
61	2543	2.0	4
62	x	8.3	4
63	4024	x	x
64	25216*	5.3	12
65	3790	2.9	-3
66	4489	3.8	4
67	3235	8.6	21
68	4704	5.6	7
69	2145	-13	2
70	8019	3.7	7

More results.
no.	Molecule	PrP UTR inh	BJeLR lethal	Mtb hypoxia inh	Mtb hypoxia inh growth
71	Cn1cnnc1SCc1ccc(C(=O)N=Nc2c(O)n(C)c3ccccc23)cc1	-23	0	8	-15
72	COc1cccc(NC(=O)CN(C)C(=O)c2cc3c(s2)CCCC3)c1	-14	x	16	-4
73	COc1ccccc1NS(=O)(=O)c1cc(NC(=O)CNC(=O)c2ccccc2)ccc1C	2	-9	x	x
74	O=C(Nc1ccc([N+](=O)[O-])cn1)C1CCCCC1	-11	2	8	0

no.	Autofluor counter	RN4220 kill	ugtP null kill
71	3029	6.0	3
72	4840	0.2	-2
73	2041	x	x
74	2033	0.1	15

Source: PubChem BioAssay (several laboratories)

An unsorted share of the library; overall some 4% were active at least once.
